# High-throughput results from PubChem BioAssay.
# PINK1 expr mod = A Quantitative High throughput Screen to Identify Chemical Modulators of PINK1 Expression; PINK1 immunofluorescence, high-content cytometry, 24 h; Potency, µM (highest dose often 76.6 µM), without a hit: top-dose activation (PINK1 increase), hits mostly activators; 0.2% of 410,000 active; active = well fitted activation curve with a large enough effect; inconclusive = small, poorly fitted or top-dose-only effect; inactive = flat fitted curve, though single readings scatter; cell line not stated here;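 note: potency is the fitted concentration of half-maximal effect; % of control where 0% means no effect; nearly all actives have a fitted effect of over 65% in size; a mitochondrial uncoupler was the plate control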
#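 Measures PINK1 amount and localization on or inside mitochondria by immunofluorescence. Stable cells get compounds at 5 concentrations for 24 hours before fixation and staining; CCCP controls included.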
# TRPML1 blocker = qHTS for Inhibitors of the Human Mucolipin Transient Receptor Potential 1 (TRPML1). AID 624415, 2012. 0.02% of 390,000 active. activity change, negative = inhibition, % (no concentration beside the values). TRPML1-inducible cells, Ca2+ dye fluorescence, FDSS; active compounds read low; inhibition of EC80 agonist-evoked calcium signal. Mucolipin-1 (Homo sapiens), Q9GZU1; in the data active means activity change below about -50%; inconclusive means about -30% to -50%; inactive means above about -30%;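 note: stimulus is agonist 54-4 at its EC80 concentration; % is set by controls: 0 for no effect and ±100 for the full control effect; compound concentration not given in the record; the text of the record puts the active cut at -80%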
#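 Tet-induced TRPML1-DL cells loaded with Ca8 no-wash calcium dye were read kinetically on FDSS. Compound addition was followed by EC80 agonist 54-4 (4 uM final); inhibition was read over 110 s.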
# ClpP mod = qHTS Assay for Activators of ClpP; ATP-dependent Clp protease proteolytic subunit (Bacillus subtilis (strain 168)), P80244; purified B. subtilis ClpP, FRET peptide cleavage, 20 min; Potency, µM (series often up to 57.5 µM), for the others: at the highest dose activity change, negative = active; 1.9% of 340,000 active; AID 651965, 2013; active = well fitted falling curve with a large enough effect; inconclusive = small, poorly fitted or top-dose-only effect; inactive = no such curve, though single readings can be large or run the other way; note: potency is the fitted concentration of half-maximal effect; the source files actives as falling curves though it sought activators and does not explain the sign; nearly all actives have a fitted effect of over 65% in size; many hits overshoot -100%
# Target sequence (P80244 whole entry, looked up): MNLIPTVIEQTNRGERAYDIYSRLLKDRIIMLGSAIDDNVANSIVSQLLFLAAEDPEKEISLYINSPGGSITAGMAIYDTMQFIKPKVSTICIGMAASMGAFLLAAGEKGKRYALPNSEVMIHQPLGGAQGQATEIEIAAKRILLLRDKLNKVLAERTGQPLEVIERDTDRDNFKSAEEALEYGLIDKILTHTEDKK
#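 Purified B. subtilis ClpP, 10 microg/mL final in Tris/HCl pH8 with KCl, BSA, glycerol and Tween-20, cleaved an Abz/nitrotyrosine-quenched decapeptide. Fluorescence (ex 320, em 430) was read at 0 and 20 min at room temperature. Delta was normalized to 5.8 microM ADEP and DMSO/no-enzyme controls.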
# Sfp inh = qHTS Assay for Inhibitors of Bacillus subtilis Sfp phosphopantetheinyl transferase (PPTase) | Biochemical Sfp PPTase activity, qHTS | 3.5% of 310,000 active | Potency, µM, inactives show max response, negative = inhibition, most hits filed as inhibitors | 4'-phosphopantetheinyl transferase ffp (Bacillus subtilis), Q9F4F7; active = well fitted inhibition curve with a large enough effect; inconclusive = small, poorly fitted or top-dose-only effect, or another doubt; inactive = no such curve, though single readings can be large or run the other way;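 note: the enzyme is Sfp with the accession as filed and its product quenches rhodamine fluorescence; potency is the fitted concentration of half-maximal effect; 0% = enzyme reaction without inhibitor and -100% = no enzyme wells; top concentration of the series not given in the record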
#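 Compounds were incubated with enzyme (final 15 nM) for 15 min at room temperature before substrate addition started the reaction. Fluorescence at 525 nm excitation, 598 nm emission was recorded immediately and after 30 minutes.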
# Menin MLL FP FL = qHTS Assay for Inhibitors Targeting the Menin-MLL Interaction in MLL Related Leukemias: Competition With Fluorescein Labeled MLL-derived Peptide | Fluorescence polarization, fluorescein-MLL peptide displacement from menin | FP activity change, % at 61.4 µM | 290,000 tested, under 10 active | AID 1766, 2009; inconclusive = falling polarisation curve, or a change in total fluorescence; inactive = total fluorescence flat and polarisation flat or rising; no compound was filed as active; the % refers to the polarisation; negative = inhibition;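 note: % of control where 0% means no effect; inhibitors lower the polarisation; unlabelled MLL peptide was the positive control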
# TRPML1 agonist = qHTS for Agonists of the Human Mucolipin Transient Receptor Potential 1 (TRPML1); Mucolipin-1 (Homo sapiens), Q9GZU1; TRPML1-expressing cells, Ca2+ dye fluorescence, FDSS; host cell line not named in the record; reference of the full effect not given here; activation, % (concentration not given with the values); 0.12% of 410,000 active; AID 624414, 2012; in the data active = activation above about 50%; inconclusive = about 30% to 50%; inactive = below about 30%; note: 0% is about no effect; the text of the record puts the active cut at 80%
#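 Tet-induced TRPML1-DL cells, 1,500 per well, cultured overnight, were loaded with a no-wash Ca2+ dye for 45–90 min. Calcium fluorescence was recorded on the FDSS for 110 s after compound addition, before the EC80 agonist (4 uM 54-4) was added.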
# TRPV1 potentiator = HTS Assay for Compounds that Act as Potentiators of the Vanilloid Receptor 1 | potentiation, % at 8.33 µM | TRPV1-expressing cells, Fluo-8 calcium influx, capsaicin EC20 potentiation; host cell line not named in the record; control for the full effect not named in the record | AID 540277, 2011 | 0.02% of 320,000 active; active means potentiation above 80%; inconclusive means 30% to 80%; inactive means below 30%; note: 0% is about no effect
# Target sequence (Q8NER1 whole entry, looked up): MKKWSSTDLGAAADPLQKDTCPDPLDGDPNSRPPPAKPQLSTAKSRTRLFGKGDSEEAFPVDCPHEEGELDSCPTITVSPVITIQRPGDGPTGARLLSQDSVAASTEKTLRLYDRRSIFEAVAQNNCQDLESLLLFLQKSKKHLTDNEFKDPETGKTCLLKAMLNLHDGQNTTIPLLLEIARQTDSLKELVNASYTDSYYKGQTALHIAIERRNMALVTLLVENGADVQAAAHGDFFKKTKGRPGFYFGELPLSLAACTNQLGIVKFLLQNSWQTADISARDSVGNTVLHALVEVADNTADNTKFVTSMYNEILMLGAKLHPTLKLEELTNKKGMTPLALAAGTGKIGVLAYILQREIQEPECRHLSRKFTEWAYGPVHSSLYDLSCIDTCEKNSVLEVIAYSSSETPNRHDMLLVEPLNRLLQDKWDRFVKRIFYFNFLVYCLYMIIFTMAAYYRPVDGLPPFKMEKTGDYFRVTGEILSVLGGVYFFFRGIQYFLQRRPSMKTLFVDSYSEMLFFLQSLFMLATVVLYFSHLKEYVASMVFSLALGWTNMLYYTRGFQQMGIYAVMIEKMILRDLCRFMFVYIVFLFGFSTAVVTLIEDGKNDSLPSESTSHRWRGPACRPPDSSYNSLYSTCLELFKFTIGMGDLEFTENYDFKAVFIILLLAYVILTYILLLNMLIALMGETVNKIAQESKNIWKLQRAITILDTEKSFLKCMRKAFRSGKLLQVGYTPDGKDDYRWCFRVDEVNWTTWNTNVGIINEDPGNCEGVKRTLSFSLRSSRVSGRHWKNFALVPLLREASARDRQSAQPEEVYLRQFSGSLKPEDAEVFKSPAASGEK
#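 TRPV1-expressing cells were cultured overnight at 35.5C and loaded with Fluo-8 calcium dye for 40 to 90 min at room temperature. After a 10 s baseline, compound was added and calcium influx was read kinetically for 3 min (ex 480/em 520 nm).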
# * hit, by the source's call; ? = inconclusive; . = not tested or not shown; & = joins results of further samples; [ ] = another dose, or the depositor's remark.
compound	PINK1 expr mod	TRPML1 blocker	ClpP mod	Sfp inh	Menin MLL FP FL	TRPML1 agonist	TRPV1 potentiator
Cc1ccn2cc(-c3cccc(NC(=O)c4ccccc4)c3)nc2c1	1.5%	-6	-24%	-16%	4.2	1.1	4
O=C1OC(c2ccccc2)C2(CCCC2)C(=O)C12CCCC2 (configuration not stated)	6.6%	14	-1.2%	-2%	2.8	-0.3	-13
N#Cc1c(N2CCOCC2)nsc1-c1ccc(C(F)(F)F)cc1	-0.1%	40	.	7%	-0.1	2.8	-12
CCOc1ccc(-n2c(=O)c3sccc3n(CC(=O)Nc3cccc(OC)c3)c2=O)cc1	3.0%	14	1.6%	-6%	2.4	2.9	4
C=CCNc1nc(Cl)nc(NCc2ccco2)n1	-0.1%	9	-16%	23%	1.3	-0.1	6
C=CCn1c(SCC(=O)Nc2ccccc2C)nc(O)cc1=O	0.6%	10	-1.3%	-10%	0.2	-0.9	?
CCc1ccc(NC(=O)c2sc(-n3nc(C)c(CCC(C)C)c3C)nc2C)cc1	0.8%	-5	?	.	.	0.4	.
CC(NC(=S)Nc1c(Cl)cccc1OC(F)F)C(C)(C)C (configuration not stated)	3.0%	3	0.6%	21%	0.9	0.4	-10
CCn1c(SCC(=O)N/N=C/c2ccncc2)nc2ccccc21	0.5%	33	-1.0%	-4%	-0.5	-0.7	12
CCOc1ccc(CNC(=O)C2CCN(S(=O)(=O)N3CCCC3)CC2)cc1OC	-3.1%[38.3 µM]	-10	-1.1%	10%	-4.4	-0.4	1
CCn1c2ccccc2c2cc(N=C3SC(CC(=O)Nc4ccccc4OC)C(=O)N3CCOC)ccc21 (configuration not stated)	2.6%	9	0.5%	21%	10	-0.1	17
Cc1ccc(C)c(N2CCN(S(=O)(=O)c3ccc4[nH]c(=O)ccc4c3)CC2)c1	2.2%	-5	-2.9%	2%	3.0	-0.3	-24
CCc1ccc(CNc2ccc(O)cc2)cc1	15%	5	-0.9%	11µM*	-1.9	-0.6	-7
CCC(=O)NCCCNc1nc2c(C)cccc2cc1C#N	2.9%	27	.	?	-2.3	-0.2	-27
COc1cccc(C(=O)OCCNC(=O)c2cccnc2)c1	-3.3%	3	.	6%	-7.3	-0.2	?
O=C(Nc1sc2c(c1C(=O)NCc1cccnc1)CCCC2)c1ccco1	4.8%[38.3 µM]	-20	-8.1%	?	2.2	1.6	17
Cc1nonc1CC(=O)N1CCc2c([nH]c3ccccc23)C1c1ccccc1F (configuration not stated)	0.6%	12	.	8%	0.5	0.4	5
COc1ccccc1C(CC(N)=O)c1ccco1 (configuration not stated)	0.7%	11	-3.0%	0%	6.9	-0.2	-5
O=C(OCC(=O)N1CCCCC1)c1cccs1	-0.4%	-16	.	.	.	0.1	.
COc1ccc(/C=C/C(=O)NCc2ccc3c(c2)OCO3)cc1OC	2.2%	-14	?	.	.	1.4	.
O=c1c2[nH]c3cccc(Cl)c3c2ncn1Cc1ccco1	9.9%	27	.	14%	-0.4	0.4	11
Nc1nonc1C(=O)NCCNCc1cc(Br)ccc1OCc1ccc(F)cc1	.	32	5.8%	?	1.8	0.0	4
Cc1ccccc1NC(=O)CSc1nc(-c2cccs2)nc2cc(=O)[nH]n12	-0.3%	-24	1.2%	.	.	1.1	9
CCN(CC)CCCNC(=O)CN1C(=O)CCn2nc(-c3cn(C)c4ccccc34)cc21	-0.7%	-3	-22%	.	.	0.0	.
CCNc1nc(Oc2ccc(C(=O)OC)cc2)nc(SC)n1	1.5%	1	0.2%	0%	0.0	0.6	-2
COc1ccc(-c2cc(C(F)(F)F)nc(NCCc3ccccc3)n2)cc1OC	17%	-14	-22%	.	.	2.4	.
Cc1ccc(C)c(NC(=S)Nc2ncccc2C)c1	1.4%	-10	.	?	0.4	2.3	-1
CCOC(=O)c1c(C)[nH]c(C)c1C(=O)COC(=O)c1cc2ccccc2cc1O	27%	0	.	12%	3.3	-0.5	1
Cc1ccc(SCCC(=O)Nc2cccc(N(C)S(C)(=O)=O)c2)cc1	-1.3%	14	-2.8%	6%	3.4	0.4	-5
CCCN1CCC(C)(C(=O)Nc2cccc(OC(C)C)c2)C1 (configuration not stated)	1.4%	.	-1.4%	.	.	-1.0	.
CC(NC(=O)CN(c1ccc(Br)cc1)S(C)(=O)=O)c1ccccc1 (configuration not stated)	-0.1%	7	1.3%	13%	0.3	-0.2	28
Cc1ccc(C)n1-c1ccc(N2CCOCC2)nc1	-1.3%[38.3 µM]	2	?	-9%	-19	0.3	?
COc1ccc(NS(=O)(=O)c2ccc3c(c2)CCN3C(=O)C2CC2)cc1OC	-0.6%	-12	-21%	.	.	-0.7	.
COc1ccc(Cn2c(C(=O)O)c(CNCc3ccc(C)o3)c3ccc(OC)cc32)cc1	0.7%	-4	-14%	.	.	1.9	.
CCCSc1nc(N)cc(=O)[nH]1	-1.8%[38.3 µM]	9	-0.1%	5%	-0.3	-0.4	-13
Cc1ccc(C(C(=O)NCc2ccco2)N(Cc2ccco2)C(=O)CNC(=O)c2ccco2)cc1 (configuration not stated)	1.5%	-10	0.3%	-17%	5.5	-0.6	-16
CCOc1ccc(-c2cc(C(=O)N/N=C(\C)c3cccnc3)c3ccccc3n2)cc1	7.6%	7	-3.1%	-11%	.	-0.6	-8
COC(CN(C)C(=O)c1cn(C)c2ccc(S(=O)(=O)N(C)C3CCCCC3)cc2c1=O)OC	-1.2%	0	1.2%	5%	.	1.1	21
CC(C)C(=O)NC(=S)N1CCc2ccccc21	0.8%	0	-0.6%	11%	1.5	0.8	5
CCC(C)Sc1nc2c(cnn2-c2ccc(F)cc2)c(=O)[nH]1 (configuration not stated)	8.2%	12	-21%	-3%	-10	-0.3	21
O=C(N[C@@H](c1ccccc1)[C@H](O)c1ccccc1)[C@@H]1CCCN1C(=O)OCc1ccccc1	-0.4%	-10&8	0.9%	-14%	-7.7	-0.7&0.1	.
O=[N+]([O-])c1ccc(S(=O)(=O)NCCCc2ccccc2)cc1	0.6%	-10	.	.	.	1.1	.
CSc1ccc(/C=N/NC(=O)c2cccc(Cl)c2)cc1	10%	25	-10%	-2%	0.6	3.8	-12
O=CNc1cc(-c2ccoc2)cn2c(-c3ccc(F)cc3)cnc12	1.9%	.	-21%	.	.	-0.4	.
c1ccc(N/N=C(\Cc2ncc[nH]2)c2ccccc2)cc1	2.5%	-2	0.9%	-6%	0.9	-0.6	-3
O=c1[nH]c(C2CCCN(S(=O)(=O)c3cccc(F)c3)C2)nc2c1nnn2Cc1ccccc1 (configuration not stated)	3.2%	-1	-0.5%	-1%	-12	-0.6	5
COc1ccc(S(=O)(=O)N2CCCCC2c2cc(C(=O)Nc3ccccc3)no2)cc1 (configuration not stated)	-0.1%	.	0.2%	.	.	-0.7	.
c1ccc(Cn2c(NCc3ccncc3)nc3ccccc32)cc1	-1.6%	-12	-2.6%	-14%	10	0.4	-12
Cc1cc(Cl)ccc1NC(=S)NCc1ccc(S(N)(=O)=O)cc1	1.9%	-4	.	14%	2.2	-0.7	-10
Cc1ccc(S(=O)(=O)N2CCOCC2)cc1C(=O)Nc1ccccc1C(=O)O	0.3%	19	-0.6%	.	.	1.4	.
CC(C)(C)NC(=O)C(=O)NCc1ccncc1	-0.9%	25	-2.5%	9%	-1.0	0.4	-7
CN(C(=O)COC(=O)c1cc(S(=O)(=O)N2CCOCC2)ccc1Cl)C1CCS(=O)(=O)C1 (configuration not stated)	1.0%	6	0.3%	.	.	0.3	-9
O=C(Nc1ccc(OCC(F)(F)C(F)F)c(C(F)(F)F)c1)c1ccccc1O	16µM*	2	?	30%[activator]	0.0	-0.3	-9
CCc1nnc(NC(=O)CSc2nnc(COc3ccc(C)cc3)n2-c2ccccc2)s1	2.5%	5	-3.1%	5%	-0.4	3.5	2
O=C(Nc1ccccc1N1CCCC1)c1cc(Cl)ccc1Cl	0.5%	-12	2.8%	2%	1.8	2.2	1
Cc1ccc2nc(-c3ccc(Cl)c(NC(=O)COc4ccc([N+](=O)[O-])cc4)c3)oc2c1	-1.1%	7	-2.0%	.	.	-0.2	.
CCC(=O)N1CCc2cc(S(=O)(=O)CCC(=O)N3CCN(c4ccc(Cl)cc4)CC3)ccc21	-1.6%&0.5%	-18&-3	0.5%&0.0%	3%	.	1.4&0.2	25
CCCCn1c(SCC(=O)NC2CCCC2)nc2ccccc2c1=O	4.3%	-3	-2.7%	.	.	-1.1	6
COCCNC(=O)C(c1ccccc1)N(Cc1cccs1)C(=O)Cn1nnc2ccccc21 (configuration not stated)	-1.1%	11	-2.4%	-3%	2.0	1.9	-3
Cc1ccc(CNC(=O)CCCn2c(=O)c3ccccc3n(CC(=O)Nc3ccc(C)c(C)c3)c2=O)cc1	2.0%	27	0.9%	.	.	-0.6	.

# Next records
compound	PINK1 expr mod	TRPML1 blocker	ClpP mod	Sfp inh	Menin MLL FP FL	TRPML1 agonist	TRPV1 potentiator
COc1ccc2c(c1)cc1c(=O)n(CC(=O)NCc3ccco3)nc(C)n12	1.4%	25	-14%	.	.	0.2	.
Cc1ccc(C)c(OCc2cc(C(=O)N3CCc4sccc4C3)no2)c1	4.3%	26	-3.5%	?	.	3.6	-7
Cc1nn(CC(=O)Nc2ccc(Cl)cn2)c(C)c1Br	7.7%	24	-2.6%	16%	.	1.7	0
O=C(Nc1ccc(C(=O)N2CCCCC2)cc1)C1=CSCCO1	2.0%	-6	-1.7%	12%	.	0.5	10
